miR-21 FLuc – miR-21 reporter, rising signal. HeLa miR-21 FLuc reporter, luciferase, 48 h. Potency, µM (top dose mostly 38.3 µM), for inactives: at the highest dose reporter change, positive = more light. 340,000 tested, under 10 active. AID 2288; active = well fitted rising curve with a large enough effect; inconclusive = small, poorly fitted or top-dose-only effect; inactive = no such curve, though single readings can be large or run the other way;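 further: % of control where 0% means no effect; miR-21 action dims this reporter so a rising signal means less miR-21 action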
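Luminescence from a firefly luciferase reporter carrying a miR-21 binding site downstream, stably expressed under a CMV promoter in HeLa cells that make miR-21 endogenously, reports miRNA modulation after 48 h compound exposure up to approximately 40uM final.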
Rango complex inh – inhibitors of Rango-importin beta complex formation. Q14974. Rango CFP/YFP FRET sensor + importin beta, 45 min. Potency, µM (series often up to 92.2 µM), for the others: at the highest dose inhibition of complex formation. 0.031% of 340,000 active. AID 540263; active = rising FRET ratio curve, often small or poorly fitted; inconclusive = mostly compound fluorescence or quenching in the first reads; inactive = flat curves in all reads;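 further: potency means the concentration at half of the fitted maximal effect; 0% = DMSO wells and 100% = buffer wells lacking importin beta; nearly all actives have a fitted effect of over 15% in size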
Target sequence (Q14974 whole entry, looked up): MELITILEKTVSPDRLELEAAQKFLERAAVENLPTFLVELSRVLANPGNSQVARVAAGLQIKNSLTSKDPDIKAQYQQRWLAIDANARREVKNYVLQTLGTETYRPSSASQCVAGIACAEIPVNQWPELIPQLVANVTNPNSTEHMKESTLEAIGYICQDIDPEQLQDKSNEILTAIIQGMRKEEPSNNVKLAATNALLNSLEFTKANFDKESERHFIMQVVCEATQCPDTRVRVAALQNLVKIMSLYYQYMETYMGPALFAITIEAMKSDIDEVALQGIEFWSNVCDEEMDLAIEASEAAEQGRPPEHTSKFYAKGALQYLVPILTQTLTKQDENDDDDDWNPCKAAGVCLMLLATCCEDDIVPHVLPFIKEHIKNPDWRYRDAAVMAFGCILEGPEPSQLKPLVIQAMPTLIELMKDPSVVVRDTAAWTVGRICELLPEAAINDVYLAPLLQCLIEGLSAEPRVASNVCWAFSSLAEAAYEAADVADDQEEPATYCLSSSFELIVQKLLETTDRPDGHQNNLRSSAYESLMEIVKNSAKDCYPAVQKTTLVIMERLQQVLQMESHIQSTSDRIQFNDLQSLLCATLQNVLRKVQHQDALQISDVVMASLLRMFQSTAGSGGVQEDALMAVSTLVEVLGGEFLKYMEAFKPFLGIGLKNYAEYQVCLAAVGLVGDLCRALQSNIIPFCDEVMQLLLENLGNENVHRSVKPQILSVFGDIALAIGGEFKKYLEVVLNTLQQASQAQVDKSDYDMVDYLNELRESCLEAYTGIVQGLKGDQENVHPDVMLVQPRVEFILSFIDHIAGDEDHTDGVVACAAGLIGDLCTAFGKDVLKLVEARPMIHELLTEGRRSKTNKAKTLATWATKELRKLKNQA
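FRET biosensor (snurportin 1 IBB flanked by EYFP and cerulean), 50 nM, with compound 5 min, then 0.125 microM importin beta in PBS, 1 mM DTT, 0.02% Tween-20, 0.1% BSA. CFP/YFP ratio read after 45 min at room temperature; pre-read flags interference.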
Rango dissoc inh – inhibitors of RanGTP-induced Rango-importin beta complex dissociation; O95149+P62826; Biochemical FRET Rango-importin beta, RanGTP-induced dissociation; Potency, µM (titrated, usually from 46.1 µM), without a hit: at the top dose activity change, negative = inhibition; 0.071% of 340,000 active; active means falling FRET ratio curve, often poorly fitted, with flat reads before Ran was added; inconclusive means other falling curves, or compound fluorescence or quenching; inactive means flat or rising ratio curve;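 further: potency means the concentration at half of the fitted maximal effect; % of control where 0% means no effect; nearly all actives have a fitted effect of over 45% in size; -100% = wells without RanGTP and RCC1; the record marks most hits as doubtful in a second field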
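Rango/importin beta premix (0.1/0.25 uM final), PBS + 1 mM DTT + 0.02% Tween-20 + 0.1% BSA; cpd 5 min RT; FRET pre-read; + RanGTP-RCC1 (0.6 uM Ran, 2 mM GTP, 0.2 uM RCC1); 45 min RT; FRET post-read, ex 430, em 486/530 nm.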
GLA inh pH 4.5 – blocks human alpha-galactosidase A at pH 4.5. P06280. purified enzyme, 4-MU-alpha-Gal fluorescence, pH 4.5. activity change, negative = inhibition, % at 105 µM. 230,000 tested, under 10 active. AID 1467; inconclusive = small, poorly fitted or top-dose-only inhibition, or a rising curve; inactive = flat fitted curve, though single readings scatter; no compound was filed as active;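 further: 0% = full activity with enzyme and -100% = basal without enzyme; dose as in the result columns while the protocol names 77 µM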
* marks the source's active call; other numbers are inactive results; & = joins results of further samples.

How did Cc1cc(OCC(=O)N2CCc3ccccc3C2)c(C)cc1Br do in these assays?
miR-21 FLuc: -8%; Rango complex inh: -2.8%; Rango dissoc inh: -2%

Results for Cn1cccc1C(=O)NC(=O)COC(=O)c1ccc(S(C)(=O)=O)cc1 ?
Rango complex inh: 0.8%; Rango dissoc inh: 26%

How did CC(=O)c1cc(NC(=O)c2cccc(C(F)(F)F)c2)c(=O)oc1/C=C/N(C)C do in these assays?
miR-21 FLuc: 1%; Rango complex inh: inconclusive; Rango dissoc inh: inconclusive; GLA inh pH 4.5: 2

Results for Cc1ccccc1OCC(=O)NNC(=S)NC(=O)c1ccco1 ?
miR-21 FLuc: -1%; Rango complex inh: -0.5%; Rango dissoc inh: 17%; GLA inh pH 4.5: -1

Results for Cc1ccc(NC(=O)COC(=O)/C=C/c2ccc(Br)o2)cc1S(=O)(=O)N(C)C ?
miR-21 FLuc: 2%; Rango complex inh: inconclusive; Rango dissoc inh: -7%; GLA inh pH 4.5: 0

How did COCCN(C(=O)COC(=O)Cc1ccc(Cl)cc1Cl)c1c(N)n(Cc2ccccc2)c(=O)[nH]c1=O do in these assays?
Rango complex inh: -0.3%; Rango dissoc inh: -1%

Results for CCOc1ccc(-n2c(C)nnc2SCC(=O)N(CC)CC)cc1 ?
miR-21 FLuc: -1%; Rango complex inh: -2.8%; Rango dissoc inh: -10%; GLA inh pH 4.5: -3

What do the screens show for `COC(=O)C1=C(C)NC(=O)NC1c1ccc([N+](=O)[O-])o1` (configuration not stated)?
miR-21 FLuc: -2%; Rango complex inh: 2.8%; Rango dissoc inh: -10%; GLA inh pH 4.5: -1

How did CCOc1ccc(OCCn2c(S(=O)(=O)O)nc3c(N)ncnc32)cc1 do in these assays?
miR-21 FLuc: 0%; Rango complex inh: 0.7%; Rango dissoc inh: -5%

Results for COc1ccc(-c2nnc(SCc3ccc(C(=O)O)cc3)n2N)cc1 ?
miR-21 FLuc: -10%; Rango complex inh: 2.1%; Rango dissoc inh: 11%; GLA inh pH 4.5: -9

How did CC(OC(=O)Cc1n[nH]c(=O)c2ccccc12)C(=O)Nc1ccc(F)cc1Cl (configuration not stated) do in these assays?
Rango complex inh: -0.2%; Rango dissoc inh: -22%

What do the screens show for `Cc1cnc(C(=O)NC2CCSc3ccccc32)cn1` (configuration not stated)?
miR-21 FLuc: -12%; Rango complex inh: -3.3%; Rango dissoc inh: -4%

Results for COc1cc2c(c(NC(C)=O)c1)N(C(C)=O)CCC2 ?
Rango complex inh: 0.6%; Rango dissoc inh: -8%

What do the screens show for `COc1cccc(CNC(=O)C2CCN(Cc3cnn(-c4ccccc4)c3-n3cccc3)CC2)c1`?
miR-21 FLuc: 4%; Rango complex inh: 0.5%; Rango dissoc inh: 13%; GLA inh pH 4.5: -9

What do the screens show for `CCN1c2ccc(S(=O)(=O)N3CCOCC3)cc2N(Cc2ccc(OC)cc2)C1C` (configuration not stated)?
miR-21 FLuc: -5%; Rango complex inh: -2.2%; Rango dissoc inh: 5%; GLA inh pH 4.5: -14

What do the screens show for `Cc1ccc(S(=O)(=O)N2CCC(=O)N(CCOCc3ccc(C(F)(F)F)cc3)CC2)cc1`?
miR-21 FLuc: 10%; Rango complex inh: -1.2%; Rango dissoc inh: 1%; GLA inh pH 4.5: -8&0

How did CC(Oc1ccccc1)C(=O)N1CCC2(CC1)CC(=O)c1ccccc1O2 (configuration not stated) do in these assays?
Rango complex inh: -1.3%; Rango dissoc inh: -2%

Results for COc1ccccc1NC(=O)CN(Cc1ccco1)C(=O)c1cc2ccccc2o1 ?
miR-21 FLuc: 4%; GLA inh pH 4.5: -4

Results for CCOC(=O)C(C)Sc1nnc(Cc2cc(=O)[nH]c(=O)[nH]2)n1-c1ccc(OCC)cc1 (configuration not stated) ?
miR-21 FLuc: -1%; Rango complex inh: 0.3%; Rango dissoc inh: 30%; GLA inh pH 4.5: 5

What do the screens show for `Cc1ccc(CSc2ncn(-c3ccccc3)n2)cc1`?
miR-21 FLuc: -39%; Rango complex inh: inconclusive; Rango dissoc inh: 1%; GLA inh pH 4.5: -5

How did O=C1C2C3C=CC(O3)C2C(=O)N1N=Cc1cccc2ccccc12 (configuration not stated) do in these assays?
Rango complex inh: 3.0%; Rango dissoc inh: -10%

What do the screens show for `COc1ccc(O)c(C(=O)c2cnn(C(=O)c3cccc(S(=O)(=O)N(C)C)c3)c2)c1`?
Rango complex inh: -1.5%; Rango dissoc inh: -10%

What do the screens show for `CCc1ccc(NC(=O)CSc2nc3ncc(Br)cc3[nH]2)cc1`?
miR-21 FLuc: 6%; Rango complex inh: 0.3%; Rango dissoc inh: -9%

What do the screens show for `O=C(CSc1nnc(CNC(=O)c2ccccc2)o1)c1ccccc1`?
miR-21 FLuc: -6%; Rango complex inh: 1.8%; Rango dissoc inh: -1%

What do the screens show for `CCOC(=O)C1=C(C)N=c2s/c(=C\c3ccc(C(=O)O)cc3)c(=O)n2C1c1ccc(OC)cc1OC` (configuration not stated)?
Rango complex inh: -0.2%; Rango dissoc inh: 6%

How did CCCCn1c(=O)[nH]c(=O)c2c1nc(-c1cc(Br)c(OCC)c(OC)c1)n2C do in these assays?
miR-21 FLuc: 13%; Rango complex inh: 1.3%; Rango dissoc inh: -7%

What do the screens show for `Cc1cccc(CC(=O)Nc2sc(C(C)C)cc2C(=O)N2CCOCC2)c1`?
miR-21 FLuc: -3%; Rango complex inh: -0.1%; Rango dissoc inh: 2%

How did O=C(CSC1=NC(=O)C(Cc2ccccc2)C(=O)N1)NC1CCCCC1 (configuration not stated) do in these assays?
miR-21 FLuc: 0%; Rango complex inh: 2.5%; Rango dissoc inh: 1%; GLA inh pH 4.5: 6

Results for O=C(O)CSCC(=O)N1CCN(c2nc3cc(Cl)ccc3s2)CC1 ?
miR-21 FLuc: -10%; Rango complex inh: 4.3%; Rango dissoc inh: -7%

Results for Cc1ccc(-n2nnnc2CNC(=O)c2ccc3c(c2)OCO3)cc1C ?
miR-21 FLuc: -3%; Rango complex inh: -4.6%; Rango dissoc inh: 21%

How did CCCCN=c1scc(-c2ccc3c(c2)NC(=O)CO3)n1N=C1CCCC1 do in these assays?
miR-21 FLuc: 28%; Rango complex inh: inconclusive; Rango dissoc inh: -25%; GLA inh pH 4.5: -3

How did COCCCNC(=S)NNC(=O)C(O)(c1ccccc1)c1ccccc1 do in these assays?
miR-21 FLuc: 2%; Rango complex inh: 2.6%; Rango dissoc inh: 2%; GLA inh pH 4.5: 4

How did O=C(CSc1ccccc1)Nc1ccc(NC(=O)c2ccco2)cc1 do in these assays?
miR-21 FLuc: -22%; Rango complex inh: -2.6%; Rango dissoc inh: -12%; GLA inh pH 4.5: -1

What do the screens show for `COc1ccc(-c2nnc(SCC(=O)NNC(=O)Cc3ccccc3)n2C)cc1OC`?
miR-21 FLuc: -8%; Rango complex inh: 2.9%; Rango dissoc inh: -15%; GLA inh pH 4.5: -5

Results for COc1ccc(C(C)(C)C)cc1NC(=O)COC(=O)CN1C(=O)NC2(CCCCC2C)C1=O (configuration not stated) ?
Rango complex inh: -1.5%; Rango dissoc inh: 27%

What do the screens show for `O=C(CN1CCC(C(=O)c2ccc(F)cc2)CC1)NCc1ccccc1F`?
miR-21 FLuc: 8%; Rango complex inh: -4.3%; Rango dissoc inh: 2%

What do the screens show for `COc1ccc(OCC(=O)NC2CCSc3ccccc32)cc1` (configuration not stated)?
Rango complex inh: 1.2%; Rango dissoc inh: 3%

How did C[C@@H](C(=O)NCCc1c[nH]c2ccccc12)[C@H]1C[C@]1(C)[C@H](NC(=O)OCc1ccccc1)c1ccccc1 do in these assays?
miR-21 FLuc: inconclusive; Rango complex inh: 1.7%; Rango dissoc inh: -4%; GLA inh pH 4.5: -6&-6

What do the screens show for `CCOC(=O)/C(C#N)=N/Nc1ccccc1C(=O)O`?
miR-21 FLuc: -3%; Rango complex inh: -0.8%; Rango dissoc inh: -20%; GLA inh pH 4.5: 0

What do the screens show for `CN(C(=O)OCc1ccccc1)C(CC(N)=O)C(=O)O` (configuration not stated)?
miR-21 FLuc: -4%; Rango complex inh: -0.1%; Rango dissoc inh: -3%; GLA inh pH 4.5: -9

What do the screens show for `CCN(CC)C(=O)c1ccc(-c2nnc(Nc3ccc(O)cc3)c3ccccc23)cc1`?
miR-21 FLuc: 1%; Rango complex inh: -1.1%; Rango dissoc inh: 3%

How did Cc1c(C(=O)N2CCC(C)CC2)sc2ncnc(N3CCN(c4ccccc4)CC3)c12 do in these assays?
miR-21 FLuc: -5%; Rango complex inh: -3.2%; Rango dissoc inh: -2%; GLA inh pH 4.5: -1

What do the screens show for `N#C[C@@H]1[C@@H]2C(=O)N(c3ccc4c(c3)OCCO4)C(=O)[C@@H]2C2c3ccccc3C=CN21` (some centres not stated)?
miR-21 FLuc: -27%; GLA inh pH 4.5: -2

How did COc1ccc(CCN2CC(C(=O)NCCc3cccc(F)c3)CCC2=O)cc1 (configuration not stated) do in these assays?
miR-21 FLuc: -2%; Rango complex inh: 6.2%; Rango dissoc inh: -5%

How did CCCCCCCC(=O)NC(Nc1ccccc1OC)C(Cl)(Cl)Cl (configuration not stated) do in these assays?
miR-21 FLuc: -3%; Rango complex inh: 0.5%; Rango dissoc inh: -5%; GLA inh pH 4.5: -6

What do the screens show for `CCOc1cc(C#N)ccc1OCC(=O)N1CCN(C(=O)c2cccs2)CC1`?
Rango complex inh: -0.1%; Rango dissoc inh: -3%

Results for CCOC(=O)c1ccc(NS(=O)C23CC4CC(CC(C4)C2)C3)cc1 (configuration not stated) ?
miR-21 FLuc: -16%; Rango complex inh: 3.0%; Rango dissoc inh: 5%; GLA inh pH 4.5: 1

What do the screens show for `COc1ccc(N2CCc3c(C)nc(SC)nc32)cc1`?
miR-21 FLuc: -9%; Rango complex inh: 0.0%; Rango dissoc inh: 5%; GLA inh pH 4.5: 1

Results for CC(OC(=O)c1ccc(C#N)cc1)C(=O)Nc1ccc(Cl)cn1 (configuration not stated) ?
Rango complex inh: 0.0%; Rango dissoc inh: 4%

Results for Cc1ccc(C(=O)CCCn2nnc(-c3cccnc3)n2)cc1C ?
miR-21 FLuc: -11%; Rango complex inh: 1.8%; Rango dissoc inh: 17%; GLA inh pH 4.5: 5

What do the screens show for `O=C(COc1ccc(F)cc1)N1CCC(Cc2ccccc2)CC1`?
miR-21 FLuc: -16%; Rango complex inh: 2.0%; Rango dissoc inh: 29%

Results for COc1ccc(/C=N/NC(=O)c2nc(-c3ccccc3)cc(-c3ccccc3)n2)cc1O ?
miR-21 FLuc: 0%; Rango complex inh: 0.0%; Rango dissoc inh: 7%; GLA inh pH 4.5: -7

What do the screens show for `Cn1c(=O)c2c(ncn2CCc2ccccc2)n(C)c1=O`?
miR-21 FLuc: -10%; Rango complex inh: 12%; Rango dissoc inh: -1%; GLA inh pH 4.5: 8

What do the screens show for `Cc1ccc(/C(O)=C2/C(=O)C(=O)N(CCN3CCOCC3)C2c2cccnc2)cc1` (configuration not stated)?
miR-21 FLuc: 1%; Rango complex inh: 0.6%; Rango dissoc inh: -2%; GLA inh pH 4.5: 3

What do the screens show for `O=C(Nc1ccc(N2CCCC2)cc1)c1cc([N+](=O)[O-])ccc1N1CCOCC1`?
miR-21 FLuc: -3%; Rango complex inh: 5.3%; Rango dissoc inh: -13%

Bioassay records (PubChem BioAssay)

Only part of the results is shown; the hit share may differ from the screen's.
